Beta apoptosis: inhibitors of cytokine-induced beta cell apoptosis, primary screen, luminescence; INS-1E cytokine-induced death, ATP luminescence, 48 h; percent of positive-control rescue, neutral wells zero; protection from apoptosis, % (no concentration beside the values); 0.8% of 300,000 active;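 active = all replicates at 75% or more, or half of them and the mean; inconclusive = half reach 75% but not the mean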;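 also: 0% = cytokine-treated negative control wells and 100% = positive control rescue; higher means more ATP so stronger rescue from cytokine killing; wells of about 40 µL received 100 nL stock; the first replicate is given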
A1 inh: caspase 3/7 activation in MEF A1-2A-BIM cells, primary screen, A1 inhibitor project, cell-based, luminescence, HTS; Caspase-Glo 3/7 luminescence, 3 h; percent of clofoctol response, vehicle zero; 0.066% of 330,000 active; caspase activation, % (no concentration beside the values);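 active = over half of replicate activation scores above 10%, or exactly half above 10 with the replicate mean above 10; inconclusive = replicate mean below 10 yet half the replicates above 10; inactive = over half of replicates below 10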;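 also: wells of about 30 µL received 50 nL stock; many hits fall short of the cut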
LANA-H2A inh: blockers of LANA interaction with H2A/H2B – biochemical, FP readout, HTS, primary screen; Protein LANA1 (Human herpesvirus 8 type P (isolate GK18)), Q9QR71; cell-free LANA-H2A/H2B peptide, fluorescence polarization; inhibition, % (no concentration beside the values); 0.6% of 320,000 active; AID 2629, 2010; in the data active = inhibition mostly above about 10%, no sharp cut-off; inactive = mostly below about 6.7%;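 also: stock transfer was 7.5 nL into about 10 µL; 0% = median of vehicle wells and 100% = median of positive control wells; one replicate is shown; the record names a cut of 25% in any replicate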
UCH37 inh: inhibitors of human UCH37 deubiquitinase, primary screen, biochemical, Ub-AMC cleavage, fluorescence. Ubiquitin carboxyl-terminal hydrolase isozyme L5 (Homo sapiens), Q9Y5K5. purified proteasome/UCH37. inhibition, % (test concentration not listed). 0.33% of 330,000 active. AID 588478, 2011;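 active = mean of two replicates above 20%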;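 also: 0% = compound-free wells with enzyme and 100% = wells lacking proteasome; stock transfer was 100 nL into about 20 µL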
Target sequence (Q9Y5K5 whole entry, looked up): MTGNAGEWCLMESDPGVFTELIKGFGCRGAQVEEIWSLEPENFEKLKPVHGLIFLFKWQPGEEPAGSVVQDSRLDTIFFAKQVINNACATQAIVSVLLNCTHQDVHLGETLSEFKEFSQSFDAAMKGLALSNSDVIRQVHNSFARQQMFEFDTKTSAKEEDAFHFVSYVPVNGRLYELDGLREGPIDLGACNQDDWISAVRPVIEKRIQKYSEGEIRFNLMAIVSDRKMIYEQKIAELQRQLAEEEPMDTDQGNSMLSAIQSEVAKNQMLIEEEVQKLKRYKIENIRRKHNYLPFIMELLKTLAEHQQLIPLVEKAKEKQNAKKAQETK
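System: Proteasome-associated human UCH37 deubiquitinase; Input: 0.15 nM proteasome in added enzyme buffer; Also added: Ub-AMC substrate from 1 µM stock; Incubation: 30 min compound-proteasome preincubation then 25 min substrate reaction, room temperature; Detection: fluorescence, ex 355 nm, em 460 nm; Read-out: % inhibition of Ub-AMC cleavage fluorescence; Benchmarks: no-proteasome and no-compound wells.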
RanGTP-Imp inh: inhibitors of RanGTP-importin-beta interaction, primary screen, biochemical, FRET, CFP-Ran, YFP-importin-beta, homogeneous; 1.1% of 300,000 active; cell-free CFP-Ran/YFP-importin-beta FRET ratio; AID 2216, 2009; inhibition, % (no concentration beside the values); Ran GTPase (GTP-bound) - importin-beta complex;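 active = most replicates above 15%; inconclusive = exactly half above 15%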;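 also: 0% = DMSO wells and 100% = Ran loaded with GDP instead of GTP; wells of about 40 µL received 100 nL stock; the first replicate is given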
Beta2AR agonist: beta2AR agonists driving receptor internalization, primary screen, cell-based, FAP fluorogen, flow cytometry; AID 504454, 2011; 0.43% of 340,000 active; Beta-2 adrenergic receptor (Homo sapiens), P07550; Am2.2-beta2AR cells; reference of the scale not given here; response, % (no concentration beside the values);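 active = response above a set limit, near 3 SD of response in nonfluorescent compounds, cut at about 42% in these data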;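 also: stock transfer was 100 nL into about 11 µL; a reference agonist was the positive control; negative values mostly stem from fluorescent compounds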
Target sequence (P07550 whole entry, looked up): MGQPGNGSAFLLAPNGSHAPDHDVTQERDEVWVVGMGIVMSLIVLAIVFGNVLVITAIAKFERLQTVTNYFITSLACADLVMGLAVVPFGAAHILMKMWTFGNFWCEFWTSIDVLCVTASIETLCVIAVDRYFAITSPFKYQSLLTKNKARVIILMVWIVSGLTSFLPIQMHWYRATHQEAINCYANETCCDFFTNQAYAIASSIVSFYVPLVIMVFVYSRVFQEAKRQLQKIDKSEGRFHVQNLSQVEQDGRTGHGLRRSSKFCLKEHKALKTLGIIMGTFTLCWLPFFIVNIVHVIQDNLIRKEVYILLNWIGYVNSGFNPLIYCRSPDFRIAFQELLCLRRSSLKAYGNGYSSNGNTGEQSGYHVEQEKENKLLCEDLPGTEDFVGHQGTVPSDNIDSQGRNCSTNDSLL
Calb FLC: C. albicans growth inhibition with fluconazole, primary screen, CaCi-2 strain, Alamar Blue fluorescence. AID 1979, 2009. 0.57% of 300,000 active. C. albicans CaCi-2 (fluconazole-resistant clinical isolate) + fluconazole, 48 h. growth inhibition, % (test concentration not listed);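 active = most replicates above 75%; inconclusive = exactly half above 75%; inactive = most below 75%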;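 also: all wells also contain fluconazole at 8 µg/ml as a sub-toxic cotreatment; 0% = median of DMSO wells and 100% = median of geldanamycin control wells; wells of about 8 µL received 7.5 nL stock; the first replicate is given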
T cruzi repl: inhibitors of intracellular T. cruzi growth, primary screen, luminescence, NIH3T3 host cells; AID 1885, 2009; T. cruzi beta-gal in NIH3T3, 90 h; 1.4% of 300,000 active; inhibition, % (concentration not given with the values);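 active = mean inhibition across valid replicates above about 55%, limit read from the data; inconclusive = mean below that limit but half or more replicates reach it; inactive = mean below it, under half of replicates reach it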;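 also: signal also drops with host cell toxicity which is not excluded here; 0% = plate median of DMSO wells and 100% = zero luminescence signal; higher percent means less beta-gal luminescence so fewer parasites; stock transfer was 50 nL into about 50 µL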
Starred values were filed as active, the others as inactive; u = inconclusive; x = no result given.

compound	RanGTP-Imp inh	T cruzi repl	Calb FLC	A1 inh	LANA-H2A inh	Beta2AR agonist	UCH37 inh	Beta apoptosis
COc1ccc(Nc2ncnc3ccc(C)cc23)cc1	-0.7	-5.0	3.0	0.5	3.7	0.8	4.7	-3.9
CCCOc1ccc(C2NC(=O)NC(c3ccccc3)=C2C(C)=O)cc1OCC (stereo unspecified)	-1.0	7.7	-5.9	-1.6	7.4	-3.8	1.6	-2.3
Cc1nc2ncnn2c(C)c1CCC(=O)NCc1ccccc1	-2.9	-15.8	-16.6	2.4	-5.5	6.0	2.9	-0.8
CSCCC(NC(=O)CCNC(=O)c1ccccc1Cl)c1nc2ccccc2[nH]1 (stereo unspecified)	x	x	x	0.4	3.0	-8.2	3.4	-0.5
O=C(NCCC(=O)N1CCN(c2ccccn2)CC1)c1ccc(Br)cc1	4.1	-5.6	5.3	1.4	-0.6	13.7	5.9	-2.0
CCC(CC)NCc1ccc2c(c1)c1ccccc1n2CC	u	28.3	-16.3	-0.1	-1.6	8.1	x	7.7
CN(C(=O)Cn1c(Cl)nc2c1c(=O)n(C)c(=O)n2C)C1CCS(=O)(=O)C1 (stereo unspecified)	3.5	-6.6	5.3	1.2	2.6	8.5	1.5	x
O=C1NC2(CCC3(CC2)OCCO3)NN1c1ccc(Cl)cc1	-2.8	22.8	105.6*	0.0	5.9	-16.3	3.7	1.9
C=C(C)CN(CC)C(=O)CN1C(=O)NC(C)(c2ccc3ccccc3c2)C1=O (stereo unspecified)	-0.2	1.7	8.7	0.2	2.8	-5.3	-1.8	-7.9
O=C(NC1CCCCC1)C(c1ccccc1)N(C(=O)c1cccs1)c1ccc2c(c1)OCO2 (stereo unspecified)	-1.2	18.2	-8.5	-0.6	-0.2	1.9	4.7	-9.1
CCN(CC)CCCN1C(=O)C(=O)/C(=C(/O)c2ccc(Cl)cc2)C1c1ccccn1 (stereo unspecified)	0.9	-7.9	-1.8	0.6	0.8	0.4	7.3	-9.7
Oc1ccc(C2N=C(c3ccccc3)NC(c3ccccc3)=N2)cc1	x	x	x	-0.7	1.9	-21.1	4.5	-0.2
O=C(O)c1ccc(Cl)c(S(=O)(=O)NCc2ccco2)c1	-5.2	5.9	5.0	0.0	0.9	2.1	-0.3	-3.7
COc1ccc(C2=NN(CN3C(=O)C(=O)c4ccccc43)C(c3cccc([N+](=O)[O-])c3)C2)cc1 (stereo unspecified)	1.4	-1.3	9.5	0.8	-0.2	7.8	5.4	-7.4
S=C(Nc1ccccc1Cl)N1CCCCCC1	u	0.6	-9.5	-0.2	-3.3	1.5	5.6	1.0
O=C(COC(=O)c1ccc(Cl)c(Cl)c1)NC1CCCC1	-6.0	3.9	2.7	2.5	0.1	-6.1	2.4	-5.5
CCOC(=O)c1sc(NC(=O)COc2ncnc3ccccc23)c(C(=O)OCC)c1C	u	-14.9	u	-0.2	3.4	-7.2	2.2	12.6
O=C1COc2ccc(S(=O)(=O)N3CCN(c4ccccc4F)CC3)cc2N1	3.1	-1.8	-2.5	x	x	1.9	1.5	x
C=CCNC(=O)c1ccc2nc(Cc3ccc(OC)cc3)oc2c1	2.7	1.8	2.3	-3.1	0.2	-3.0	x	-1.6
CC(C)(C)CC(=O)NC(=S)Nc1ccccc1C(F)(F)F	0.4	-11.0	-16.6	0.5	1.3	8.8	4.2	1.6
CC(C)Cn1nc(C(=O)Nc2cccc(S(=O)(=O)N3CCCC3)c2)c2ccccc2c1=O	x	x	x	-0.6	4.4	8.9	3.0	2.9
Cc1cc(N2CCN(Cc3nc(-c4ccc(F)cc4)oc3C)CC2)cc(C)n1	4.5	-37.6	1.0	-0.1	1.4	10.8	0.8	-4.2
CNC(=S)N(C)c1ccccc1	-0.1	-13.8	-4.2	-0.2	2.2	-0.8	0.2	-7.9
CCOc1ccc(S(=O)(=O)NCCC(=O)OCC(=O)N2CC(=O)Nc3ccccc32)cc1	4.5	-26.4	10.8	-0.4	10.6	1.3	1.2	2.3
O=C(Cc1ccc(Cl)cc1)Nc1ccc(NC(=O)c2ccccc2)cc1	2.0	-11.8	1.5	0.1	5.1	-5.5	1.5	3.6
O=C(COc1ccccc1)Nc1nnc(S(=O)(=O)N2CCCCCC2)s1	-3.5	12.2	-9.0	-0.4	-0.6	8.3	7.8	-3.9
COc1ccccc1C1CCN(c2ccc(CO)cc2[N+](=O)[O-])CC1	-1.1	19.2	23.0	0.2	-3.0	-0.2	0.4	-0.6
NC1=NS(=O)(=O)NC1c1ccc(F)cc1 (stereo unspecified)	-2.9	-2.7	-0.8	0.9	-9.1	-4.0	-0.3	-4.7
CC1CCN(C(=O)c2ccc3c(c2)NC(=O)/C(=C/c2ccccc2)S3)CC1	-1.5	22.1	-0.6	0.4	4.2	8.6	2.3	19.6
Cn1c(SCC(=O)NCCc2ccccc2)ncc(C(=O)Nc2ccccc2)c1=O	0.9	-1.8	1.7	0.7	-2.7	-5.5	-57.9	x
COc1ccc(NC(=O)Nc2ccccc2SC)c(OC)c1	-1.8	-12.0	10.1	-0.4	4.0	-7.3	-0.3	-5.3
Cc1ccc(S(=O)(=O)N2CCN(C(=O)c3ccc(N4CCCC4)c([N+](=O)[O-])c3)CC2)cc1	0.9	12.7	6.2	-0.5	-3.4	-4.5	3.4	2.7
CSc1ccc(CN2C(=O)NC3(CCCCCC3)C2=O)cc1	-1.5	11.2	-27.0	0.9	-0.5	7.6	5.5	-7.3
Cc1ccc(-c2nnc(-c3ccc4c(c3)OCO4)o2)cc1	x	-1.3	x	-4.8	-4.0	-2.7	-39.1	-2.8
CSc1ccccc1OCc1cc(C(=O)N(C)CC2COCCO2)no1 (stereo unspecified)	3.0	0.9	-5.6	-0.8	-2.8	2.2	0.4	-5.0
CS(=O)(=O)N1CC(C(=O)NC2CCCC2)Oc2ccc(Cl)cc21 (stereo unspecified)	0.8	-10.5	u	0.6	-1.2	-1.6	2.9	-3.3
COc1cccc(CN2CCN(c3nc4nonc4nc3N3CCCCC3)CC2=O)c1	-3.2	17.2	-12.9	0.5	0.0	3.1	13.2	2.8
Cc1ccc2c(CC(=O)N3CCN(S(=O)(=O)c4cccs4)CC3)coc2c1	u	-7.2	14.9	-0.9	-2.2	3.9	-0.4	0.8
O=C(CNC(=O)c1ccc2ccccc2c1)Nc1ncccc1O	x	x	x	-0.6	0.0	1.6	-1.1	-5.2
CCCN(C(=O)c1c(-c2ccccc2)noc1C)c1c(N)n(Cc2ccccc2)c(=O)[nH]c1=O	x	x	x	0.0	0.1	-3.0	1.1	-2.3
CN(Cc1cc2cc(F)ccc2[nH]1)Cc1nc(-c2cnccn2)no1	4.8	6.8	1.0	1.5	-1.6	-0.7	2.1	-2.9
CCOc1ccc(S(=O)(=O)N(CC)CC(=O)NCc2ccncc2)cc1	5.1	9.2	4.8	-0.7	-2.2	1.4	0.2	-4.7
COc1ccc(CCNC(=O)Cn2nnc(-c3cccs3)n2)cc1OC	-6.9	-5.3	-9.3	0.2	-2.6	-2.0	3.1	-2.8
CC(C)(C)N(Cc1ccccc1)C(=O)c1ccc2c(c1)OCCO2	-2.6	0.4	0.1	0.4	0.0	0.7	-0.1	-7.8
CCOc1ccc(OCC)c(S(=O)(=O)NNC(=O)c2c(C)nc3ccccn23)c1	-0.9	-4.3	9.8	0.2	0.6	-6.7	3.0	-3.1
N#Cc1cccc(NC(=O)COC(=O)CCc2ccc(S(=O)(=O)N3CCOCC3)cc2)c1	x	x	x	1.4	-0.2	-3.1	0.0	-1.3
COc1ccc(NS(=O)(=O)c2cccc(NC(=O)C3=NN(c4ccccc4)C(=O)CC3)c2)cc1	2.5	7.3	15.1	0.8	-5.9	2.1	2.1	11.1
Nc1cccnc1Oc1ccc(F)cc1F	0.6	3.8	-16.2	0.4	3.2	-2.9	1.2	-6.7
Cn1nc(-c2ccccc2)cc1NS(=O)(=O)c1ccc(C#N)cc1	5.9	6.8	-10.6	-0.1	-2.2	-5.7	2.9	1.5
CCOC(=O)c1ccc(N(CC(=O)NC2CCCCC2)C(=O)CNC(=O)c2ccco2)cc1	0.2	1.7	-2.4	-0.9	-1.4	-0.9	0.8	-0.5
CC(C)Oc1ccc(C(=O)/C(=C\c2cccs2)c2nc3ccccc3o2)cc1	-2.6	47.1	u	-0.6	5.9	20.1	1.3	-3.4
COc1cccc(CN(C)C(=O)C23CC4CC(CC(NC(C)=O)(C4)C2)C3)c1OC	2.1	-6.3	6.6	0.0	-1.4	1.0	5.7	-7.3
CCOc1ccc(Nc2nc(N)c([N+](=O)[O-])c(NCc3ccccc3)n2)cc1	0.2	27.7	5.5	-0.7	4.3	-6.3	5.7	-3.1
CN(C)CCNC(=O)c1nn(C)c2c1CCc1ccccc1-2	-2.5	10.2	3.6	-0.1	-6.4	-1.6	1.7	-6.0
Cc1[nH]c2ccccc2c1SCC(=O)Nc1nccs1	-4.0	-1.7	-17.0	0.2	-1.1	-6.8	1.4	-1.4

High-throughput results (PubChem BioAssay)
